# D2 PAM – human D2 receptor positive allosteric modulation | DiscoveRx D2 beta-arrestin cells, luminescence, 90 min; 100% = 57 uM dopamine signal | potentiation, % (concentration not given with the values) | 360,000 compounds, 0.23% hits | P14416; active = potentiation of 50% or more; inconclusive = 30% to 50%; inactive = 30% or less;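 further: tested on top of an EC20 dose of dopamine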
#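 PathHunter D2 cells, attached overnight at 37 deg C, received compound in DMSO plus dopamine at EC20 (50 nM final) for 90 min at 37 deg C. Beta-arrestin recruitment was read as luminescence after 1 h with detection reagent at ambient temperature.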
# TRPV1 potentiator – potentiators of human vanilloid receptor 1 (TRPV1). Q8NER1. TRPV1-expressing cells, Fluo-8 calcium influx, capsaicin EC20 potentiation; host cell line not named in the record; control for the full effect not named in the record. potentiation, % at 8.33 µM. 320,000 compounds, 0.02% hits. AID 540277; active means potentiation above 80%; inconclusive means 30% to 80%; inactive means below 30%; further: 0% is about no effect
#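 Fluo-8 calcium influx in TRPV1-expressing cells, kinetic read (ex 480/em 520 nm). Compound added and read 3 min for agonist activity, followed by capsaicin at EC20 final and 2 min further read for enhancement.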
# Six1-Eya2 blk – Six1/Eya2 interaction inhibition. AlphaScreen GST-Six1/His-Eya2 binding, biochemical; hits give low values; control for the full effect not named in the record. Q15475+O00167. activity change, % (no concentration beside the values). 360,000 compounds, 0.56% hits; in the data active = activity change below about -65%; inconclusive = about -30% to -65%; inactive = above about -30%; further: on the % scale 0 is the no-effect control and ±100 the full control effect
# Target sequence (O00167 whole entry, looked up): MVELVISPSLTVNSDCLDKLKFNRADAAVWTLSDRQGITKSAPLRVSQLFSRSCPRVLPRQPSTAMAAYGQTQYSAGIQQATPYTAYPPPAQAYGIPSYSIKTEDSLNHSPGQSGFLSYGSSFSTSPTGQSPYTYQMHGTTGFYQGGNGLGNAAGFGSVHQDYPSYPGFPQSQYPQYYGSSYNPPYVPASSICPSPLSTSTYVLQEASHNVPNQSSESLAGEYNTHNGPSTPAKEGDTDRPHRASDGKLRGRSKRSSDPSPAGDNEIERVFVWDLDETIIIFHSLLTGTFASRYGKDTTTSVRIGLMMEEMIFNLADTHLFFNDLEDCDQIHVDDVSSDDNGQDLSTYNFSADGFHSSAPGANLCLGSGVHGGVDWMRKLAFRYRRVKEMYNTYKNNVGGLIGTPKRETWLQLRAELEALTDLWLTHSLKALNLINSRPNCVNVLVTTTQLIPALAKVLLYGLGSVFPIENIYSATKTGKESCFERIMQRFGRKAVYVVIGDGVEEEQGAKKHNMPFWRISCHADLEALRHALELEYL
# Target sequence (Q15475 whole entry, looked up): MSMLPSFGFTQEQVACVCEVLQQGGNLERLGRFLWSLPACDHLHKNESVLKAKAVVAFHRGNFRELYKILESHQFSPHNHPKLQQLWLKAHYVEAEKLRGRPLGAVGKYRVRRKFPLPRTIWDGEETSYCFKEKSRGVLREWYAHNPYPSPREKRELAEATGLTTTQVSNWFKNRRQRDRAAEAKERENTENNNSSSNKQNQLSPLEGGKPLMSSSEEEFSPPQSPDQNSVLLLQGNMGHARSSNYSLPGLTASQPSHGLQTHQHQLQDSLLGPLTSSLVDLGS
#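 AlphaScreen luminescence read after one hour at 37 °C in darkness. Pin-transferred compounds met GST-Six1 and His-Eya2 protein (5X stock 250 nM/500 nM) plus glutathione donor and Ni-chelate acceptor beads (5X, 50 ug/mL).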
# Sfp inh – inhibitors of Bacillus subtilis Sfp phosphopantetheinyl transferase. Potency, µM, without a hit: max response, negative = inhibition, actives largely listed as inhibitors. AID 1490. 310,000 compounds, 3.5% hits. Biochemical Sfp PPTase activity, qHTS; active means well fitted inhibition curve with a large enough effect; inconclusive means small, poorly fitted or top-dose-only effect, or another doubt; inactive means no such curve, though single readings can be large or run the other way;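 further: the enzyme is Sfp with the accession as filed and its product quenches rhodamine fluorescence; potency means the concentration at half of the fitted maximal effect; 0% = enzyme reaction without inhibitor and -100% = no enzyme wells; top concentration of the series not given in the record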
#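 Fluorescence-quenching assay: 15 nM Sfp-PPTase preincubated 15 min at room temperature with compound, then 5 uM rhodamine-CoA and 12.5 uM BHQ-2-labelled YbbR peptide added. Fluorescence (ex 525/em 598 nm) read at start and after 30 min; difference gives rate.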
# PINK1 expr mod – PINK1 expression modulation | PINK1 immunofluorescence, high-content cytometry, 24 h | Potency, µM (titrated, usually from 76.6 µM), for the others: top-dose activation (PINK1 increase), most hits filed as activators | 410,000 compounds, 0.2% hits; active = well fitted activation curve with a large enough effect; inconclusive = small, poorly fitted or top-dose-only effect; inactive = flat fitted curve, though single readings scatter; cell line not stated here;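 further: potency means the concentration at half of the fitted maximal effect; % of control where 0% means no effect; nearly all actives have a fitted effect of over 65% in size; a mitochondrial uncoupler was the plate control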
#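 A stable cell line was treated with compounds at 5 concentrations for 24 hours, with CCCP as control. PINK1 levels and mitochondrial localization were measured by immunofluorescence with mitochondrial, cell and nuclear markers after fixation, read by laser-scanning cytometry.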
# CtBP-E1A inh – blocks the CtBP interaction with E1A | AlphaScreen GST-E1A/His-CtBP binding, 1536-well; hits give low values; control for the full effect not named in the record | activity change, % (test concentration not listed) | 340,000 compounds, 0.49% hits | AID 651724; in the data active means activity change below about -65%; inconclusive means about -30% to -65%; inactive means above about -30%; further: on the % scale 0 is the no-effect control and ±100 the full control effect
#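 GST-E1A and His-tagged CtBP (125 nM each as 5X stock) were preincubated with pin-transferred compound for 2 h at 37 °C in the dark, then glutathione donor and nickel acceptor beads were added for 1 h before AlphaScreen reading.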
# D2 agonist – human D2 receptor agonism in beta-arrestin assay | activation, % (no concentration beside the values) | 360,000 compounds, 0.084% hits | AID 624465 | DiscoveRx PathHunter D2 beta-arrestin, luminescence, 90 min; 100% = 57 uM dopamine signal | P14416; in the data active = activation above about 40%; inconclusive = about 15% to 40%; inactive = below about 15%; further: compound concentration not given in the record; the text of the record calls up to 30% inactive
#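 DiscoveRx PathHunter D2 beta-arrestin cells (2,100/well) attached overnight, then compound-stimulated 90 min at 37 C in HBSS/10 mM HEPES/0.1% Tween-20 buffer; beta-galactosidase complementation read by luminescence after 1 h at ambient temperature. Dopamine 57 uM final (EC100) as control.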
# An asterisk follows results filed as active; ? = inconclusive; / = no result given; & = joins results of further samples; [ ] = dose if it differs, or a comment.
SMILES,D2 PAM,TRPV1 potentiator,Six1-Eya2 blk,Sfp inh,PINK1 expr mod,CtBP-E1A inh,D2 agonist
O=C(/C=C/c1ccccc1)N(Cc1cccc(Cl)c1)C1CCS(=O)(=O)C1 (stereo not drawn),-2,-6,0,-16%,-1.1%,6,-1.5
CCN(CC)CCOc1nc(C)nc2c1oc1ccccc12,-17,2,-19,4%,-1.2%,-16,-1.5
COc1cccc(-n2c(SC)nnc2-c2cnccn2)c1,-3,3,2,16%,0.6%[38.3 µM],6,2.7
C=CCN1C(=O)C(CC(=O)Nc2ccc(OCC)cc2)N(Cc2ccccn2)C1=S (stereo not drawn),2,-9,7,-5%,0.7%,-1,-0.6
Cc1cc(C(=O)NCc2cccnc2)no1,-13,-3,4,-11%,4.6%[38.3 µM],12,-1.8
Cc1ccc2cc(C=O)c(Cl)nc2c1,-9,11,-2,?,-0.1%,/,1.2
COc1ccc(CCN(C(=S)Nc2ccccc2)C2CC(=O)N(c3ccccc3)C2=O)cc1 (stereo not drawn),-17,0,-3,-20%,16%,-5,-1.2
CCOC(=O)c1ccc(NC(=O)c2ccccc2C)cc1,-2,7,12,-21%,-1.6%,-2,-1.6
Cc1nn(-c2ccccc2)c(Cl)c1/C=C(/CC(=O)O)c1nc2ccccc2s1,-2,/,-6,/,0.2%,5,0.8
COc1ccc(C(=O)NC2CCN(C(=S)NCc3ccco3)CC2)cc1,-10,3,-2,9%,/,7,-0.5
Cc1cccc(-n2c(C)n[nH]c2=S)c1C,0,15,6,-14%,1.8%,0,-3.6
O=c1cc(Cn2ccnc2)c2cc3c(cc2o1)CCC3,-12,-14,-1,12%,-0.1%,-10,-3.9
CCOC(=O)C(NC(C)=O)(Nc1ccc(S(=O)(=O)Nc2ccncn2)cc1)C(F)(F)F (stereo not drawn),-16,-2,-2,21%,1.5%,-2,-4.1
Cc1c(C)n(C)c2ccc(C(=O)NCCc3ccco3)cc12,-8,-3,-17,?,0.9%,/,-3.1
O=C(Cn1c(=O)cnc2ccccc21)NNC(=O)c1ccc(Cl)cc1,-4,0,2,/,0.3%,-4,-2.2
COc1ccc(-c2csc(NC(=O)CSc3n[nH]c(N)n3)n2)cc1,-13,3,-7,-20%,4.1%,4,-1.5
O=c1c2c([nH]c3ccccc13)CCCCC2,1,8,2,12%,-0.1%,11,-0.3
O=S(=O)(Nc1cccnc1)c1ccc(C2CCCCC2)cc1,?,-7,0,8%,-0.4%,-6,-2.0
C=C(C)C(=O)Nc1cccc(C2=NOC3(C2)C[C@@H](C(N)=O)N(C(=O)[C@H]2CCC(=O)N2)C3)c1 (stereo partly drawn),-10,19,-17,-5%,-0.5%,2,-3.3
O=C(CSc1nnc(-c2ccccc2Br)o1)Nc1nncs1,-3,-1,-18,-1%,0.0%,-8,-3.8
Cc1cc(C)c(NC(=S)N(Cc2cccnc2)Cc2ccco2)c(C)c1,-5,24,0,-8%,-1.2%,-4,-3.8
Nc1ccc(C2(c3ccc(N)cc3)C(=O)Nc3ccccc32)cc1,-4,-4,-4,8%,/,5,-4.5
CCNC(=O)N1CCCC(C(=O)c2ccc(OC)c(OC)c2)C1 (stereo not drawn),-1,-2,9,-1%,-0.7%,7,-1.7
CC1CN(Cc2c(O)ccc3c2oc(=O)c2ccccc23)CC(C)O1 (stereo not drawn),-42,-12,-9,79µM*,0.6%,/,-15
CNC[C@@H]1Oc2cc(Br)ccc2S(=O)(=O)N([C@H](C)CO)C[C@H]1C,-1,/,2,/,-0.3%,4,-7.6
CNC(=O)C1(c2ccccc2)CCCCC1,-5,/,3,/,1.3%,2,-5.2
COc1ccc(CCNC(=O)c2c(C)nc3ccccn23)cc1OC,-1,2,25,-3%,0.9%,-17,-2.9
CCOP(=O)(OCC)C(NC(=O)Nc1ccccc1)C(N)=O (stereo not drawn),3,-10,10,15%,1.0%,0,0.2
COc1ccc(NC(C)=O)c([N+](=O)[O-])c1[N+](=O)[O-],5,/,7,/,2.4%,1,15
CCOc1ccc(C(=O)NCC(=O)OCc2c(C)noc2C)cc1OCC,-16,1,0,10%,0.8%,0,-2.1
COC(=O)c1sccc1NC(=O)CSc1ccccc1N,-1,4,-1,8%,0.4%,5,-3.9
CCOC(=O)N1CCC2(CC1)C(C#N)=C(N)OC1=C2C(=O)CC(C)C1 (stereo not drawn),-8,4,5,19%,-1.1%,8,-2.7
Cc1ccc(-n2c(Cc3cccs3)nnc2SCC(=O)OC(C)C)cc1,8,7,5,-5%,0.6%,2,1.2
CC(C)(C)N(Cc1ccccc1)C(=O)CSc1nnc(CNc2ccc(F)cc2)o1,-4,-12,-9,11%,-0.3%[38.3 µM],-9,-2.8
COC(=O)c1sc(NC(=O)Cc2cccs2)nc1C,-7,6,-3,14%,-0.7%[38.3 µM],-14,-3.3
COc1cc(S(=O)(=O)Nc2ccc(Br)cc2)ccc1N,-4,7,1,-17%,1.8%,6,1.2
COc1ccc(C2=NN(C(=O)CN3CCCCC3)C(c3ccc(C)cc3)C2)cc1 (stereo not drawn),-8,-5,-23,22%,5.8%,15,-2.5
C=CCNc1nc(Cl)ncc1F,11,0,7,19%,-0.9%,11,0.2
c1ccc(C2CC(c3cccs3)=NN2c2ccccc2)cc1 (stereo not drawn),5,-5,163,-8%,5.8%,204,-3.3
COC(=O)CCCC1=CC2=CC(=O)C(C)(OC(=O)c3cccs3)C(=O)C2=CN1Cc1ccccc1 (stereo not drawn),5,?,-6,13%&-26%,0.8%,-6,6.1

# Pulled by structure from above:
SMILES,D2 PAM,TRPV1 potentiator,Six1-Eya2 blk,Sfp inh,PINK1 expr mod,CtBP-E1A inh,D2 agonist
COc1ccc(-c2csc(NC(=O)CSc3n[nH]c(N)n3)n2)cc1,-13,3,-7,-20%,4.1%,4,-1.5
CC(C)(C)N(Cc1ccccc1)C(=O)CSc1nnc(CNc2ccc(F)cc2)o1,-4,-12,-9,11%,-0.3%[38.3 µM],-9,-2.8
COc1cc(S(=O)(=O)Nc2ccc(Br)cc2)ccc1N,-4,7,1,-17%,1.8%,6,1.2
CCNC(=O)N1CCCC(C(=O)c2ccc(OC)c(OC)c2)C1 (stereo not drawn),-1,-2,9,-1%,-0.7%,7,-1.7

# (next part)
SMILES,D2 PAM,TRPV1 potentiator,Six1-Eya2 blk,Sfp inh,PINK1 expr mod,CtBP-E1A inh,D2 agonist
CCCCN1C(=O)c2ccc(C(=O)Nc3ccccc3N3CCOCC3)cc2C1=O,-28,9,-3,-6%,0.2%,5,-6.1
Cc1cc(/C=C(/C#N)c2nc3ccccc3[nH]2)c(C)n1-c1cc(C(=O)O)cc(C(=O)O)c1,-3,-12,-69*,0%,1.4%,-66*,-2.5
CCCCC(=O)NC1(C(F)(F)F)C(=O)Nc2c1c(=O)[nH]c(=O)n2Cc1ccco1 (stereo not drawn),12,?,0,-1%,-0.1%,0,-0.7
COCCN(C(=O)c1ccc(C)c(S(=O)(=O)N2CCOCC2)c1)c1c(N)n(CC(C)C)c(=O)[nH]c1=O,2,/,10,/,0.1%,9,0.6
CCC(CC)c1nnc(NC(=O)C2CCN(C(=O)c3ccco3)CC2)s1,-3,0,7,40µM*,0.7%,-14,-4.5
CCC(C(=O)Nc1cc(OC)c(NC(=O)c2ccccc2)cc1OC)c1ccccc1 (stereo not drawn),-3,-6,14,5%,3.6%,0,0.6
COC(=O)c1ccc(NC(=O)[C@H](C)NC(N)=O)cc1,-4,-4,1,16%,0.0%,3,4.2
O=C(C1CCC(C(=O)N2CCc3ccccc32)CC1)N1CCc2ccccc21 (stereo not drawn),-3,-5,8,9%,-4.1%,-5,-0.5
CN(CC(N)=O)S(=O)(=O)c1ccc(F)cc1,-6,-6,0,1%,8.8%[38.3 µM],2,1.7
Cc1ccc(S(=O)(=O)CC(=O)c2ccccc2)cc1,-2,-8,-6,12%,-0.4%,-4,-3.8
O=C(NCCOc1ccc(Cl)cc1)c1ccco1,-7,0,7,7%,-1.0%,3,-1.6
O=C(Nc1ccc(S(=O)(=O)N2CCc3ccccc3C2)cc1)C1CCCO1 (stereo not drawn),-11,-20,2,-5%,1.0%[38.3 µM],5,-1.7
COc1ccc2c(c1OC)C(=O)N1C2SC(C)(C)[C@H]1C(=O)NC(C)C (stereo partly drawn),-34,4,-8,2%,-1.1%,0,-0.8
CCN(CC)CC(O)COc1ccc2c(c1)OCO2 (stereo not drawn),-4,6,7,3%,2.2%,-1,-2.8
CCC(C)N1CC(=O)N2C(c3ccc(OC)cc3OC)c3[nH]c4ccccc4c3C[C@H]2C1=O (stereo partly drawn),-6,-4,-12,8%,5.7%,/,-0.3
CCSc1cnnc2ccccc12,-5,/,2,/,-1.7%,-2,0.7
CC(C)CN1C(=O)c2ccc(NC(=O)c3ccco3)cc2C1=O,-6,-11,0,2%,-0.2%,9,-5.7
Cc1c([N+](=O)[O-])c(C(=O)Nc2ccc3c(c2)OCCO3)nn1C,-14,4,3,-11%,-2.2%,1,-0.6
OC(COc1ccc2ccccc2c1Cl)CN1CCOCC1 (stereo not drawn),-24,-8,-7,13%,-2.0%,-3,-4.6
O=C(Cn1c2ccccc2c(=O)c2ccccc21)Nc1cccc(F)c1,-8,2,-1,-18%,6.5%,/,-1.2
O=C(N/N=C/c1cccc(Oc2ccccc2)c1)c1cccc(O)c1,11,-14,-6,-3%,3.8%,-17,1.4
CC(=O)N1CCN(c2cc3c(cc2F)c(=O)c(C(=O)O)cn3C2CC2)CC1,-7,-10,6,14%,-2.0%,/,-1.4
CCCCn1c(NC(=O)c2ccccc2)c(C#N)c2nc3ccccc3nc21,2,-16,8,?,?,13,-0.4
C=C(C)CNC(=S)N/N=C/c1ccccc1OCC(=O)O,-1,1,0,13µM*,-0.3%,2,4.8
CCC(C)n1nccc1NC(=O)C(C)OC(=O)c1cc2ccccc2[nH]1 (stereo not drawn),6,4,-1,6%,2.9%,0,-2.0
C=CCn1c(CCNC(=O)c2cccs2)nnc1SCC(=O)c1ccc(Cl)cc1,-8,2,0,9%,1.7%[38.3 µM],-2,-1.9
CC1CN(C(=O)CSc2nc(-c3ccccc3)cs2)CC(C)O1 (stereo not drawn),-1,-1,35,17%,3.7%,0,-0.8
COc1cccc(N=Nc2c(N)[nH]n3c(=O)cc(-c4ccccc4)nc23)c1,-3,22,-18,11%,-0.1%,-4,-1.5

# Bioassay records as filed in PubChem.
